miR-21 FLuc = raises the signal of a miR-21 reporter. HeLa miR-21 FLuc reporter, luciferase, 48 h. Potency, µM (titrated, usually from 38.3 µM), without a hit: at the top dose reporter change, positive = more light. 340,000 tested, under 10 active. AID 2288; active = well fitted rising curve with a large enough effect; inconclusive = small, poorly fitted or top-dose-only effect; inactive = no such curve, though single readings can be large or run the other way;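 note: % of control where 0% means no effect; miR-21 action dims this reporter so a rising signal means less miR-21 action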
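Compounds were titrated across several concentrations (up to approximately 40 uM) and incubated 48 hours with HeLa miR-21-FLuc reporter cells (miR-21 target sequence downstream of FLuc, endogenous miR-21). Readout was firefly luciferase luminescence after lytic detection reagent.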
Rango dissoc inh = inhibition of RanGTP-driven Rango-importin beta dissociation; O95149+P62826; AID 540253; hit rate 0.071% among 340,000; Potency, µM (highest dose often 46.1 µM), for inactives: at the highest dose activity change, negative = inhibition; Biochemical FRET Rango-importin beta, RanGTP-induced dissociation; active means falling FRET ratio curve, often poorly fitted, with flat reads before Ran was added; inconclusive means other falling curves, or compound fluorescence or quenching; inactive means flat or rising ratio curve;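 note: potency is the fitted concentration of half-maximal effect; % of control where 0% means no effect; nearly all actives have a fitted effect of over 45% in size; -100% = wells without RanGTP and RCC1; the record marks most hits as doubtful in a second field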
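Rango FRET biosensor (snurportin-1 IBB flanked by N-terminal EYFP and C-terminal CFP10) at 0.1 uM, with 0.25 uM importin beta in PBS, 1mM DTT, 0.02% Tween-20, 0.1% BSA. 0.6 uM Ran, 2mM GTP and 0.2 uM RCC1 were then added for 45 min at room temperature. Inhibition read as loss of FRET rise.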
GLA inh pH 4.5 = inhibitors of human alpha-galactosidase A at pH 4.5; P06280; purified enzyme, 4-MU-alpha-Gal fluorescence, pH 4.5; activity change, negative = inhibition, % at 105 µM; 230,000 tested, under 10 active; AID 1467; inconclusive = small, poorly fitted or top-dose-only inhibition, or a rising curve; inactive = flat fitted curve, though single readings scatter; no compound was filed as active;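 note: 0% = full activity with enzyme and -100% = basal without enzyme; dose as in the result columns while the protocol names 77 µM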
Target sequence (P06280 whole entry, looked up): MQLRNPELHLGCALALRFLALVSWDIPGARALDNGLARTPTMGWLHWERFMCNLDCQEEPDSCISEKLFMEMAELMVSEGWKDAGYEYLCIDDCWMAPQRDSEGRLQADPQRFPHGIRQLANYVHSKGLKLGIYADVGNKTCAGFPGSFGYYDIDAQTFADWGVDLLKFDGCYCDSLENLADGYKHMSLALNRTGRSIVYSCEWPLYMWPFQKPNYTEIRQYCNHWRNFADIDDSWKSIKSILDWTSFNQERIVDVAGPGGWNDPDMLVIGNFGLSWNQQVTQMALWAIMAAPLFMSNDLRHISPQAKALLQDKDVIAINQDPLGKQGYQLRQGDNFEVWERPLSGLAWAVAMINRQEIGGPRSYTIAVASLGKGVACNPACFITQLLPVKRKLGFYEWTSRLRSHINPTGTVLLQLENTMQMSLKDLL
Rango complex inh = Rango-importin beta binding inhibition; hit rate 0.031% among 340,000; Q14974; Rango CFP/YFP FRET sensor + importin beta, 45 min; Potency, µM (series often up to 92.2 µM), for inactives: top-dose inhibition of complex formation; active = rising FRET ratio curve, often small or poorly fitted; inconclusive = mostly compound fluorescence or quenching in the first reads; inactive = flat curves in all reads;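 note: potency is the fitted concentration of half-maximal effect; 0% = DMSO wells and 100% = buffer wells lacking importin beta; nearly all actives have a fitted effect of over 15% in size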
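FRET biosensor Rango (snurportin 1 IBB between N-terminal EYFP and C-terminal Cerulean), 50 nM in PBS/1 mM DTT/0.02% Tween-20/0.1% BSA, preincubated 5 min RT with compound; 0.125 microM importin beta added, 45 min RT, CFP/YFP FRET ratio read.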
* hit, by the source's call; u = inconclusive; x = no result given; & = joins results of further samples.

SMILES	miR-21 FLuc	Rango dissoc inh	GLA inh pH 4.5	Rango complex inh
O=C(COc1ccc(Cl)cc1)OCc1csc(Nc2ccccc2)n1	-11.9%	1.6%	-3.7	-3.3%
O=C(CCn1c(=O)c2ccccc2n(Cc2ccccc2)c1=O)NCc1ccc2c(c1)OCO2	-5.9%	-0.8%	2.7	-3.0%
COc1ccc(C(=O)NN2CCOCC2)cc1[N+](=O)[O-]	-4.4%	6.2%	x	0.9%
Cc1noc(C)c1COc1cccc(C(=O)NCc2cccc(Cl)c2)c1	5.8%	-5.4%	4.7	3.4%
COc1ccc(CNC(=O)CSc2ccsc2[N+](=O)[O-])cc1	-56.6%	u	-6.6	-1.3%
COc1ccc(Cl)cc1NC(=O)CN(C)C(=O)c1ccc(C)s1	x	-12.0%	x	0.0%
CN(C)CCCNC(=O)c1ccc(-c2ccccc2)cc1	-11.0%	-15.0%	-4.6	3.5%
COc1ccc(-c2cc(C(F)F)n3ncc(C(=O)Nc4cnn(Cc5ccccc5)c4)c3n2)cc1	-2.8%	x	0.0	x
CCNS(=O)(=O)c1ccc(CCC(=O)O)cc1	0.7%	-3.7%	1.7	-0.9%
CSc1ncccc1C(=O)Nc1nc2ccc(Oc3ccccc3)cc2s1	-44.6%	-5.9%	-16.2	u
Cc1cnc(NC(=O)CN(C)S(=O)(=O)c2ccc(Cl)cc2)s1	5.9%	-5.0%	4.3	2.4%
COc1ccc(C(C(=O)NC2CCCCC2)N(C(=O)CCl)c2ccc(Cl)cc2)cc1 (stereo not given)	5.1%	9.6%	1.0	-1.1%
Cc1cccc(NCc2ccccc2O)c1	-12.3%	4.6%	-1.5	1.9%
CN1CCN(CCCNCc2cn(CCC#N)c3ccccc23)CC1	-2.9%	-1.8%	x	u
COc1cc2c(cc1OC)CN(Cc1nc3ccsc3c(=O)[nH]1)CC2	-7.1%	u	4.4	u
CC[C@]12c3[nH]c4cc(CCC(=O)N(C)C)ccc4c3CCN1C(=O)[C@@H](CC(=O)NC(C)(C)C)C[C@@H]2C(=O)N1CCN(C(=O)c2ccco2)CC1	x	0.1%	x	4.2%
O=C(Nc1nc2ccccc2[nH]1)c1cccc(Br)c1	-55.2%	-1.9%	x	1.5%
CC(=O)Nc1c(C(=O)O)oc2ccc(Cl)cc12	-0.3%	-6.3%	-16.1	0.0%
O=C(c1ccc(N2CCOCC2)c([N+](=O)[O-])c1)N1CCCCC1	-8.0%	-3.3%	x	0.0%
COc1ccc(C(C(C(=O)c2cccs2)N2CCOCC2)N2CCOCC2)cc1OC (stereo not given)	-6.1%	1.1%	-2.0	u
COc1ccc2c(=O)cc(C(F)(F)C(F)(F)F)oc2c1	-0.3%	-5.1%	5.8	0.3%
CN(C)CCCNC(=O)c1cc2sc3ccccc3c2s1	u	-4.6%	-10.3	-0.1%
Cc1ccccc1NS(=O)(=O)c1ccc(NC(=O)N2CCCCC2)cc1	-9.6%	11.4%	x	u
CCOC(=O)N1CCN(C(=O)c2ccc(Cn3c(=S)[nH]c4cc5c(cc4c3=O)OCO5)cc2)CC1	-0.1%	-7.1%	-7.7	3.7%
NC(=O)c1ccc(N2CCCCC2)c(N2C(=O)C3C4C=CC(C4)C3C2=O)c1 (stereo not given)	-6.4%	26.4%	13.1	-6.0%
O=C(C[C@@H]1C/C=C\C[C@@H](Cc2ccc(F)cc2)C(=O)OC[C@@H]2CCCN2C1=O)N[C@H](CO)Cc1ccccc1	x	-19.5%	x	-2.9%
CC1CCN(CCCNC(=O)c2cc3sccc3n2C)CC1	0.1%	-2.6%	0.3	-0.3%
CS(=O)(=O)N(CC(=O)N1CCCCCC1)c1ccccc1	-2.2%	4.0%	-1.0	0.0%
COc1cc(/C=C2/NC(=O)N(Cc3ccccc3F)C2=O)cc(OC)c1O	0.5%	u	u	u
CN(CC(=O)OCC(=O)NCC(F)(F)F)S(=O)(=O)c1ccc(Cl)cc1	-0.1%	-4.2%	1.4	-1.5%
O=S1(=O)N=C(N2CCN(c3ccc(F)cc3)CC2)c2ccccc21	-15.5%	-5.7%	-1.3	3.4%
O=C(NNC(=O)c1ccc(S(=O)(=O)N2CCCC2)cc1)c1ccc(Br)cc1	x	6.1%	x	-1.7%
CC1(C)CC(=O)c2sc(NC(=O)c3ccccc3)nc2C1	-44.7%	x	-4.8	x
COc1cc(CNn2nnnc2N)cc(Br)c1OCC(=O)NC(C)(C)C	-1.8%	4.7%	2.9	-2.5%
CCN(C(=O)COC(=O)CN(C)S(=O)(=O)c1ccc(NC(C)=O)cc1)C1CCS(=O)(=O)C1 (stereo not given)	0.3%	7.8%	x	-4.8%
OCc1cccc(Nc2ncnc3sc4c(c23)CCCCC4)c1	-11.7%	-3.7%	x	-5.1%
COc1cc([N+](=O)[O-])ccc1NC(=O)CSc1nnc(C)c(C)n1	-3.9%	19.4%	1.4	-2.7%
CCC(=O)N1CCc2cc(S(=O)(=O)NCCC(=O)N3CCN(c4ccccc4)CC3)ccc21	-0.6%	10.0%	x	-0.6%
CC1(C)SC(=S)N(NC(=O)Nc2ccccc2)C1N(O)C(=O)Nc1cccc2ccccc12 (stereo not given)	19.9%	18.5%	2.1	-1.6%
O=C(Nc1ccc(Cl)cc1)Nc1nc(-c2ccccc2)cs1	2.2%	3.1%	0.1	0.4%
Cc1ccc(-c2csc(NC(=S)NC(=O)/C=C/c3ccco3)n2)cc1	13.4%	-18.9%	3.1	-1.1%
CCN1CCCC1CNCc1cccc(OC)c1OCc1ccccc1 (stereo not given)	-7.3%	-0.8%	-5.7	-2.4%
CC(C)(C)OC(=O)NCCCC[C@H](NC(=O)c1nc[nH]c1C(=O)NC(c1ccccc1)c1ccccc1)C(=O)OC(C)(C)C	22.2%	-0.7%	-17.8	0.2%
O=C(COC(=O)c1ccc(Br)cc1)NCCC1=CCCCC1	2.7%	1.6%	-1.7	-2.3%
CN1CCC(N(C)S(=O)(=O)c2ccc(NC(=O)COc3ccc([N+](=O)[O-])cc3)cc2)CC1	x	-5.6%	x	1.6%
Cc1ccc(N/N=C/c2ccncc2)cc1	-29.4%	-2.4%	x	1.3%
Cc1cc(C)c2cc(C(O)c3nnnn3Cc3ccccc3)c(=O)[nH]c2c1 (stereo not given)	-10.1%	-3.8%	-1.5	-3.5%
CCN(CC)S(=O)(=O)c1ccc(-c2nnc(SCC(N)=O)n2CC)cc1	1.0%	4.3%	-1.4	0.2%
O=C(NC(=S)N1CCCCCC1)c1ccc(Cl)cc1Cl	-4.0%	-5.0%	4.6	-0.6%
O=C(CSc1ncccn1)N1CCN(S(=O)(=O)c2ccccc2)CC1	1.1%	u	5.9	-4.9%
CCCOP(=O)(OCCC)C(Nc1cccc(C(F)(F)F)c1)c1ccc(C)cc1 (stereo not given)	6.6%	12.0%	7.0	-1.3%
O=C(Nc1ccc(F)c(Cl)c1)Nc1ccc(Cl)cn1	-0.1%	37.8%	2.5	1.0%
COc1ccc(C(CNC(=O)c2cccc(S(=O)(=O)Nc3ccc(F)cc3)c2)N2CCCC2)cc1 (stereo not given)	x	1.2%	x	1.5%
COC(=O)c1sc2ncn(-n3c(C)ccc3C)c(=O)c2c1C	-2.6%	0.5%	-6.2	-3.7%
CCN(CC)S(=O)(=O)c1cc(-c2nnc(-c3ccc(Br)cc3)o2)ccc1Br	-4.3%	-10.9%	-7.7	3.0%
Fc1cccc(Cl)c1Cc1noc(/C=C/c2ccccc2)n1	-45.8%	0.5%	-1.2	2.6%
CC(=O)Nc1sc(N/N=C/c2ccccc2F)nc1-c1ccc(C)cc1	-22.5%	-16.9%	-8.1	u
Cn1c(=O)oc2cc(S(=O)(=O)N3CCCC(C(=O)N4CCn5c4nc4ccccc45)C3)ccc21 (stereo not given)	-4.0%	x	1.6	x
O=C(COC(=O)c1nn(CCO)c(=O)c2ccccc12)Nc1ccc(Cl)c(Cl)c1	x	2.9%	x	2.6%
COCC(=O)n1nc(NCc2ccc(OC)cc2)nc1NCc1ccc(OC)cc1	1.6%	19.6%	-4.7	-0.8%

(continued)
SMILES	miR-21 FLuc	Rango dissoc inh	GLA inh pH 4.5	Rango complex inh
Cc1cc(C)cc(NC(=O)c2cc(=O)c3ccccc3o2)c1	-3.0%	21.0%	15.3	-3.6%
O=C(Nc1cc(C(F)(F)F)ccc1N1CCOCC1)c1cn2ccccc2n1	-0.7%	0.1%	5.1	-6.1%
Cc1ccc(Cn2c(C(=O)O)cc3sccc32)cc1	0.9%	2.1%	-2.0	0.2%
CCOC(=O)CSc1nnc(NC(=O)c2cccc([N+](=O)[O-])c2)s1	-1.3%	u	1.5	4.2%
O=C(CCSc1ccc(Cl)cc1)Nc1cccnc1	-8.5%	14.3%	13.7	-0.2%
CCOc1ccc(Oc2ccccc2NC(=O)CN2C(=O)NC3(CCCC3)C2=O)cc1	x	-17.2%	x	-0.5%
Cc1ccc(NS(=O)(=O)c2ccc3c(c2)n(C)c(=O)n3C)c(C)c1	-6.2%&-7.6%	4.0%	x	4.5%
CC1Cc2cc(S(=O)(=O)N3CCC(C(=O)NCc4ccco4)CC3)ccc2N1C(=O)C1CCC1 (stereo not given)	18.7%	-17.8%	x	2.5%
O=C(CNC(=O)c1ccccc1F)Nc1ccc2c(c1)OCO2	x	u	x	-0.6%
O=C(c1cccs1)n1nc(NCc2ccccc2)nc1NCc1ccccc1	0.5%	4.2%	-12.4	-2.6%
COc1ccc(OCC(=O)NNc2nc3ccccc3s2)cc1	-46.1%	-9.5%	-6.8	-1.3%
Cc1ccc(CNC(=O)c2ccc(CNS(=O)(=O)c3ccc4c(c3)C(C)(C)C(=O)N4C)cc2)o1	0.7%	0.2%	x	0.3%

Some of the entries above in another layout.
miR-21 FLuc	Rango dissoc inh	GLA inh pH 4.5	Rango complex inh	molecule
-3.0%	21.0%	15.3	-3.6%	Cc1cc(C)cc(NC(=O)c2cc(=O)c3ccccc3o2)c1
0.9%	2.1%	-2.0	0.2%	Cc1ccc(Cn2c(C(=O)O)cc3sccc32)cc1
-6.2%&-7.6%	4.0%	x	4.5%	Cc1ccc(NS(=O)(=O)c2ccc3c(c2)n(C)c(=O)n3C)c(C)c1
-0.7%	0.1%	5.1	-6.1%	O=C(Nc1cc(C(F)(F)F)ccc1N1CCOCC1)c1cn2ccccc2n1
18.7%	-17.8%	x	2.5%	CC1Cc2cc(S(=O)(=O)N3CCC(C(=O)NCc4ccco4)CC3)ccc2N1C(=O)C1CCC1 (stereo not given)
0.7%	0.2%	x	0.3%	Cc1ccc(CNC(=O)c2ccc(CNS(=O)(=O)c3ccc4c(c3)C(C)(C)C(=O)N4C)cc2)o1

(more compounds)
SMILES	miR-21 FLuc	Rango dissoc inh	GLA inh pH 4.5	Rango complex inh
CCOC(=O)c1c(-c2ccccc2)csc1NC(=O)C(C)NCCCN1CCOCC1 (stereo not given)	12.0%	-0.2%	2.6	1.1%
CN(C)C(=C(C#N)C#N)N1CCN(c2ccc(Cl)c(Cl)c2)CC1	14.1%	5.9%	-2.4	2.2%
O=C(NCc1cccs1)c1ccc2ccccc2n1	-16.0%	1.2%	-5.5	0.1%
CCCOc1ccc(C(=O)N/N=C/c2c[nH]c3ccc(Br)cc23)cc1	2.5%	-6.1%	x	2.1%
CCOc1ccccc1NC(=O)CN1C(=O)NC(Cc2c[nH]c3ccccc23)C1=O (stereo not given)	x	-2.0%	x	-1.3%
CCOc1ccc(CN2CCN(Cc3cnc(N4CCOCC4)s3)CC2CCO)cc1 (stereo not given)	-2.2%	27.5%	3.0	0.3%
CCCn1c(=O)[nH]c(=O)c2c1nc(-c1ccccc1)n2CCN1CCOCC1	-10.0%	6.8%	12.1	-3.5%
CCn1c(CC(=O)Nc2ccc(F)cc2)nnc1SCC(=O)NC1=NCCS1	0.3%	-10.9%	x	-1.6%
Cn1cnnc1SCc1nnc(-c2ccccc2Br)o1	-20.4%	-2.7%	0.1	-2.6%
CC(O)CNc1nc2c(c(=O)n(C)c(=O)n2C)n1CCc1ccccc1 (stereo not given)	14.3%	4.8%	6.0	u
CCN(CC)c1ccc(C2CC(=O)NC3=C2C(=O)CC(C)(C)C3)cc1 (stereo not given)	-7.4%	-5.5%	10.0	-0.1%
C=CCOc1cccc(C(=O)/C=C2/C(=O)Nc3ccccc32)c1	u	2.5%	x	5.5%

Source: PubChem

The list is partial. The share of hits here may be higher or lower than overall.
